HNF4A DNA FP – change in binding of human HNF4A to DNA, primary screen, biochemical, fluorescence polarization, FITC-DNA; 1 h; activity change, % at 10 µM; 360,000 compounds, 0.3% hits; Hepatocyte nuclear factor 4-alpha (Homo sapiens), P41235; AID 1224865, 2016; in the data active means activity change above about 30%, passing the limit was not always enough;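 further: controls were the assay level and a saturating level of protein; the project sought stronger binding though the title names inhibitors; some compounds called inactive have numbers as strong as hits; positive values seem to mean higher polarization but the record does not say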
B2AR ag – beta2AR agonists driving receptor internalization, primary screen, cell-based, FAP fluorogen, flow cytometry; response, % (concentration not given with the values); 340,000 compounds, 0.43% hits; Am2.2-beta2AR cells; reference of the scale not given here; Beta-2 adrenergic receptor (Homo sapiens), P07550;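 active means response above a set limit, near 3 SD of response in nonfluorescent compounds, cut at about 42% in these data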;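 further: stock transfer was 100 nL into about 11 µL; a reference agonist was the positive control; negative values mostly stem from fluorescent compounds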
Target sequence (P07550 whole entry, looked up): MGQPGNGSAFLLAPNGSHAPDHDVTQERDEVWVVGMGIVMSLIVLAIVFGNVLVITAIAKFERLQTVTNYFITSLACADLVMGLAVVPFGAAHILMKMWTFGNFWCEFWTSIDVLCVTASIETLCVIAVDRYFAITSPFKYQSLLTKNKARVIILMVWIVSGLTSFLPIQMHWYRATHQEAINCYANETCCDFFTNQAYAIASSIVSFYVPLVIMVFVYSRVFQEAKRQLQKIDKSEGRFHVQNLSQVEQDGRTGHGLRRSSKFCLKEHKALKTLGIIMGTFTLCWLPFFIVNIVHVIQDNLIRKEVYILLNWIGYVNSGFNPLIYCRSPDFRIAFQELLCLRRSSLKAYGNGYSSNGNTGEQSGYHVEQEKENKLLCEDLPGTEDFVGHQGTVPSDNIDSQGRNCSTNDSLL
UCH37 DUB inh – inhibitors of human UCH37 deubiquitinase, primary screen, biochemical, Ub-AMC cleavage, fluorescence; AID 588478, 2011; inhibition, % (no concentration beside the values); Ubiquitin carboxyl-terminal hydrolase isozyme L5 (Homo sapiens), Q9Y5K5; 330,000 compounds, 0.33% hits; purified proteasome/UCH37;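 active means mean of two replicates above 20%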;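 further: 0% = compound-free wells with enzyme and 100% = wells lacking proteasome; stock transfer was 100 nL into about 20 µL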
Target sequence (Q9Y5K5 whole entry, looked up): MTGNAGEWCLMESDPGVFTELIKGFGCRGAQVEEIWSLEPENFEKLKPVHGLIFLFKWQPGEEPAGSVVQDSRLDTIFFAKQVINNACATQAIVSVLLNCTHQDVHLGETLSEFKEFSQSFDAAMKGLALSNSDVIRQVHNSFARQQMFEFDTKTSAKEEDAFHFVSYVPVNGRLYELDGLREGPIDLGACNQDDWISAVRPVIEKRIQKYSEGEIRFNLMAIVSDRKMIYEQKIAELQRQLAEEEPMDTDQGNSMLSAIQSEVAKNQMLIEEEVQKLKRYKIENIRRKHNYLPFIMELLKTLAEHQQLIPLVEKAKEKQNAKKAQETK
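Assay system: Proteasome-bound UCH37. Buffer or medium: pH 7.4 Tris-HCl (50 mM) with ovalbumin, ATP-MgCl2, DTT. Incubation: 30 min preincubation with enzyme, 25 min cleavage at room temperature. Measured by: fluorescence, ex 355 nm, em 460 nm. Read-out basis: percent inhibition. Control set: wells without proteasome as full block, compound-free enzyme plus substrate as uninhibited.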
ALR H2O2 inh – inhibitors of human ALR sulfhydryl oxidase, primary screen, biochemical, H2O2 detection, HRP-luminol luminescence, single point | purified ALR, DTT oxidation | 290,000 compounds, 3.8% hits | inhibition, % (test concentration not listed) | FAD-linked sulfhydryl oxidase ALR (Homo sapiens), P55789 | AID 485317, 2010;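 active means mean and each replicate at 75% or more; inconclusive means only one of the two met; inactive means neither met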;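 further: stock transfer was 7.5 nL into about 7.5 µL; 0% = neutral wells and 100% = wells with inactivated enzyme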
Target sequence (P55789 whole entry, looked up): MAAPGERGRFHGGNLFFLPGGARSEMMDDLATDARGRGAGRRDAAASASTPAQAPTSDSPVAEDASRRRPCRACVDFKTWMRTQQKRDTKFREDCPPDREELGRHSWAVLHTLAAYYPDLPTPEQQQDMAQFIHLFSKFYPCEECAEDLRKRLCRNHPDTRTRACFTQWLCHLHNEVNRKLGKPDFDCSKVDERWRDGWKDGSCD
Ecoli growth – E. coli growth inhibition, primary screen, OD600 | Escherichia coli growth, 23 h; stronger effect = lower value | OD600 absorbance (concentration not given with the values) | 330,000 compounds, 0.21% hits | AID 1053175, 2014;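 active means OD600 absorbance below the run mean of sample wells minus 3.6 SD, in any replicate, cut at about 0.56 in these data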;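 further: stock transfer was 300 nL into about 60 µL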
Ecoli rRNA inh – reduced GFP signal of wild-type E. coli, primary screen, bacterial rRNA inhibitor project, GFP/RFP fluorescence, OD600, single point; E. coli WT GFP vs humanized-ribosome RFP mutants, 24 h; stronger effect = lower value; DMSO median 0, no signal -100; GFP signal change (wild-type ribosome), % (test concentration not listed); 350,000 compounds, 1.6% hits;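 active means significant combined selectivity score with lowered wild-type GFP, culture density cut under 30%, mutant RFP and density less affected; inactive means any of these conditions unmet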; further: one replicate is shown; some compounds called inactive have numbers as strong as hits
FGF22 binding – binders of human FGF22 protein, primary screen, FGF22 synaptogenesis inhibitor project, biophysical, thermal shift, single point. Fibroblast growth factor 22 (Homo sapiens), Q9HCT0. recombinant FGF22 thermal shift, SYPRO orange fluorescence; percent of sucrose octasulfate shift, DMSO zero. calls only at 9.99 µM. 340,000 compounds, 1.5% hits;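 active means melting point raised past a set limit in the mean and every replicate; inconclusive means no clear call; three in four hits are not shown here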
Ecoli rRNA inh OD600 – recorded beside Ecoli rRNA inh, whose call it bears; OD600 change, %; measured here: OD600 growth;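 optical density of the mix in the first replicate; 0 = DMSO median and -100 = no signal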
Ecoli rRNA inh RFP – recorded beside Ecoli rRNA inh, whose call it bears; RFP signal change, %; measured here: RFP humanized mutant strains;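 first replicate; 0 = DMSO median and -100 = no signal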
* hit, by the source's call; i = inactive; ? = inconclusive; · = no result given; + = active, no number. The list is partial. The share of hits here may be higher or lower than overall.

SMILES,HNF4A DNA FP,B2AR ag,UCH37 DUB inh,ALR H2O2 inh,Ecoli growth,Ecoli rRNA inh,Ecoli rRNA inh OD600,Ecoli rRNA inh RFP,FGF22 binding
CC(=O)Cc1nsc(NC(=O)C2Cc3ccccc3C(=O)O2)n1 (stereo not drawn),-4.4,0,2.9,6,0.67,-10,-14,-0.1,i
Cc1ccc(NC(=S)NC(=O)c2ccc(F)cc2)cc1S(=O)(=O)Nc1ccccc1Cl,2.8,1,1.3,0,0.7,-26*,-19*,-2.2*,i
O=C(CSc1nnnn1C1CCCCC1)N1CCCC1,-0.2,-3,1.6,-6,0.66,5,0,-1.9,i
CCCCN(CCCNC(=O)C1CCN(C(=O)c2cc3sccc3n2C)CC1)Cc1ccccc1,-0.9,5,5.1,-4,0.72,1,-1,2.6,i
Cn1ccc2c(-c3ccc(C(C)(C)C)cc3)cc3c(c21)C1CCC3O1 (stereo not drawn),-1.2,·,·,·,·,-16,-22,-7.9,i
COc1ccc(NC(=O)CSCC(=O)Nc2ccc(S(=O)(=O)N3CCCC3)cc2)cc1,1.3,2,-0.9,11,0.71,-2,-2,0.3,i
COc1ccc(C)cc1NC(=O)CSc1nc2ccccc2nc1N1CCCCC1,3.7,-10,1.7,-24,0.82,5,7,-6.1,i
CC(C)OP(=O)(c1ccccc1)c1ccccc1,3.4,-6,2.3,-2,0.68,9,9,-1.0,i
Cc1cc(NC(=O)Nc2cccs2)no1,-6.1,0,1.1,30,0.73,·,·,·,·
O=C1CCC(C(=O)OCC(=O)Nc2ccc(SC(F)F)cc2)=NN1,-1.2,·,·,·,·,0,10,-5.2,i
CC(=O)CSc1nc2ccccc2s1,3.4,-3,2.0,98*,0.65,·,·,·,·
COc1cccc(N2CCN(C(C)C(=O)NC34CC5CC(CC(C5)C3)C4)CC2)c1 (stereo not drawn),3.6,-8,1.5,?,0.67,-11,-54,9.3,i
Cc1cc2[nH]c3c(c[n+](C)c4ccccc34)c2cc1C,9.1,19,-50,-15,0.53,-52,-76,-18,i
O=C1C(=C(O)c2ccccc2)C(=O)c2ccccc21,-1.6,13,16,-21,0.67,32,3,41,i
O=C(OCc1ccc([N+](=O)[O-])cc1Cl)c1cnccn1,1.9,8,1.1,-10,0.66,2,3,-0.3,i
CC(C)[C@@H]1Cc2[nH]c(=O)[nH]c(=O)c2[C@H](C)O1,-2.4,·,·,·,·,12,11,0.5,i
COc1cc(S(=O)(=O)NCc2ccc3c(c2)OCO3)ccc1Cl,-3.9,-11,1.4,-9,0.67,·,·,·,·
CC(=O)c1ccc(S(=O)(=O)NCC(=O)Nc2nc3ccccc3[nH]2)cc1,0.5,15,1.6,37,0.69,2,4,-1.1,i
CC12CC3CC(C)(C1)CC(C(=O)NC(=S)N1CCOCC1)(C3)C2,1.4,5,5.0,-6,0.68,-3,-11,13,·
CC(C)C(O)(C(=O)NNc1ccccc1)C(C)C,1.9,-5,0.6,32,0.68,2,0,-1.5,i
Cc1nc(NC(=O)c2cccc(Cl)c2)sc1C(=O)N1CCCCC1,0.5,-7,-0.4,·,0.65,-41,-40,3.3,i
CCC(=O)Nc1nc(N)n(-c2ccccc2)n1,3.9,-7,-0.2,-12,0.7,·,·,·,·
COc1ccc(/C=C/c2ccccc2)cc1[C@H]1[C@H]2C=CC[C@@H](C)[C@@H]2C(=O)N1Cc1ccccc1,-0.1,0,-2.9,2,·,·,·,·,·
Cc1ccc(S(=O)(=O)NCCC(=O)NC2CCN(Cc3ccccc3)CC2)cc1,1.2,-10,·,6,·,2,2,-0.9,i
CCOC(=O)N/N=C/c1c(F)cccc1F,-3.1,1,·,-5,·,·,·,·,·
Cc1ccc(C)[n+](CC(=O)N2CCCCC2)c1,-0.2,1,0.9,·,0.72,23,14,2.1,i
Cc1ccc(NC(=O)Cn2c(=O)oc3ccccc32)cc1C,-1.5,-4,-1.4,4,0.68,2,5,-3.6,i
Cn1ccnc1SCC(=O)NC1(C#N)CCCCC1,-0.5,7,6.3,-4,0.69,14,35,1.1,i
COc1ccc(C(CNC(=O)COc2ccc([N+](=O)[O-])cc2)N2CCCCC2)cc1 (stereo not drawn),4.9,-1,4.5,-5,0.67,0,-5,-2.5,i
COCC(=O)Nc1ccc(Br)c(C)c1,5.0,-1,4.3,-13,0.74,16,6,4.0,i
CCCOc1cccc(C(=O)Nc2cccc(NC(=O)c3ccco3)c2)c1,0.8,-1,2.1,-13,0.69,·,·,·,·
CCNC(=O)NC(=O)CSc1nc2ccccc2n1CCOC,4.5,1,1.0,-7,0.79,·,·,·,·
COc1ccc(C)cc1NC(=O)C1CCN(S(=O)(=O)c2cccs2)CC1,8.5,2,2.6,-3,0.66,4,6,-1.3,+
O=C(COc1ccc(Cl)cc1Cl)NCC(=O)N/N=C/c1c[nH]c2ccccc12,-2.4,-5,·,-21,·,·,·,·,i
Cc1cccc(OCC(=O)N2CCc3ccccc3C2)c1,5.0,-2,0.7,1,0.62,-24,-18,-2.5,i
COc1cccc(NC(=O)CN(C)C(=O)c2cc(S(=O)(=O)N3CCCCC3)ccc2Cl)c1,1.8,4,4.7,-2,0.65,-2,1,3.9,i
O=C1C2C3CCC(C3)C2C(=O)N1CNc1ccc(F)cc1 (stereo not drawn),-2.3,-3,1.6,16,0.7,·,·,·,·
O=C(Nc1ccccc1)N1CCN(C(=O)Nc2ccccc2)CC1,·,·,0.5,-4,0.72,·,·,·,·
C[C@]1(C(=O)O)C=C[C@@H](Cc2ccccc2)N1C(=O)c1ccccc1,-2.3,2,-1.1,-12,·,-3,-11,-0.2,i
CC12CCC(C(=O)Nc3ccccc3)(C(Br)C1=O)C2(C)C (stereo not drawn),2.5,-10,6.8,-1,0.7,-2,-4,3.2,i

2 compounds drawn at random from those above:
SMILES,HNF4A DNA FP,B2AR ag,UCH37 DUB inh,ALR H2O2 inh,Ecoli growth,Ecoli rRNA inh,Ecoli rRNA inh OD600,Ecoli rRNA inh RFP,FGF22 binding
C[C@]1(C(=O)O)C=C[C@@H](Cc2ccccc2)N1C(=O)c1ccccc1,-2.3,2,-1.1,-12,·,-3,-11,-0.2,i
Cc1cccc(OCC(=O)N2CCc3ccccc3C2)c1,5.0,-2,0.7,1,0.62,-24,-18,-2.5,i

Next entries:
SMILES,HNF4A DNA FP,B2AR ag,UCH37 DUB inh,ALR H2O2 inh,Ecoli growth,Ecoli rRNA inh,Ecoli rRNA inh OD600,Ecoli rRNA inh RFP,FGF22 binding
O=S1(=O)CCOCCN1Cc1ccccc1,4.9,0,0.8,0,0.79,1,5,-7.1,i
COc1cc(C(=O)Nc2nnc(S(=O)(=O)N3CCCCCC3)s2)cc(OC)c1OC,-3.3,3,0.6,-15,0.68,-31*,-19*,4.2*,i
COc1ccccc1C(=O)Nc1nnc(-c2ccccc2)s1,0.6,-8,-20,-2,0.73,8,3,1.7,i
CCN(CC)C(=O)C1=C(C)N(CCCN2CCCC2=O)C(=O)C(CC(=O)NCc2cccs2)C1 (stereo not drawn),-1.0,·,·,·,·,7,12,-0.3,i
OCCCn1c(C2CCCN2c2nc(-c3ccc(Cl)cc3)cs2)nc2cc(Cl)c(N3CCCCC3)cc21 (stereo not drawn),3.2,1,2.7,-31,0.73,8,2,6.4,i
N#Cc1cc(-c2cccc(Cl)c2)c[nH]c1=O,-1.9,8,-120,-4,0.71,·,·,·,·
Cc1c(C(=O)Nc2ccc(C(F)(F)F)cc2)sc2ncn(CC(=O)N3CCN(c4ccccn4)CC3)c(=O)c12,0.3,10,·,0,·,9,10,0.7,i
COc1ccc2nc(SCC(=O)Nc3ccccc3)[nH]c2c1,3.0,-4,1.5,-3,0.64,-20*,-12*,0.8*,i
Cc1c(C(=O)NCC(c2ccco2)N2CCCC2)oc2ccc(Cl)cc12 (stereo not drawn),0.9,0,4.1,2,0.62,-1,-24,6.5,i
Cc1ccc(C(=O)NCCCN2CCOCC2)cc1Cl,-0.3,-4,-1.7,15,0.68,10,4,0.7,i
Cc1cc(C(=O)NNC(=O)/C=C/c2ccc(F)cc2)c(C)o1,0.4,-2,4.7,1,0.7,2,22,-1.5,i
CC(C)Cn1nc(-c2ccccc2)c2ccccc2c1=O,0.1,-7,2.3,0,0.68,8,15,3.2,i
CC1CC(C)CN(c2ccc([N+](=O)[O-])cc2-c2nn[nH]n2)C1 (stereo not drawn),-1.2,-1,8.3,3,0.65,·,·,·,·
CCC[C@@H]1CCCO[C@@](C(=O)NCc2cc(C)n(C)n2)(C(F)(F)F)C1,-3.8,-7,1.0,-13,·,-12,-15,0.1,i
S=C(Nc1ccc(Cl)cc1)N(CCCN1CCOCC1)Cc1cccs1,2.0,0,2.6,0,0.68,7,-3,2.0,i
CCCN(C(=O)c1cc(S(=O)(=O)N2CCCCCC2)ccc1OC)C1CCS(=O)(=O)C1 (stereo not drawn),-0.5,-3,3.0,0,0.69,5,7,0.1,i
Cc1cc(NC(=O)C2CC(=O)N(c3ccc(Cl)cc3)C2)no1 (stereo not drawn),0.8,-4,3.7,0,0.62,-1,2,-0.9,i
CCC(C)(C)NC(=O)C(c1ccc(F)cc1)N(Cc1ccco1)C(=O)CCC(=O)Nc1ccccn1 (stereo not drawn),1.4,-8,0.5,0,0.78,·,·,·,·
O=c1/c(=C/c2ccccc2)sc2nnc(-c3cccs3)n12,0.0,2,·,6,·,2,5,-0.2,i
CC1CCN(S(=O)(=O)c2ccc(F)c(C(=O)O)c2)CC1,1.5,2,2.3,2,0.74,·,·,·,·
Cc1ccc(OCC(=O)Nc2ccc(O)c(-c3nc4ccccc4o3)c2)cc1,4.2,-7,·,2,0.7,·,·,·,·
O=C(Cn1cc(COc2ccccc2[N+](=O)[O-])nn1)c1ccc(O)cc1,-0.7,9,·,·,·,3,0,0.6,i
CSCCNC(=O)c1ccc2nc(C3CCCCC3)oc2c1,0.6,5,1.2,·,0.68,-3,-2,-2.7,i
CC(=O)Cc1cc(=O)c2c(C)cc(O)c(C3OC(CO)C(O)C(O)C3O)c2o1 (stereo not drawn),0.6,6,-10,-33,0.74,3,3,-2.3,i
CCn1c(SCC(=O)N(C)CC(=O)Nc2cccc(OC)c2)nnc1-c1ccco1,4.6,-6,0.7,-6,0.68,6,-2,-1.3,·
Cc1ccc(C(C)C)c(OCC#CCN2CCOCC2)c1,-0.9,-5,2.1,6,0.69,-18,-18,1.0,i
COc1ccc(Nc2nc(-c3sc(C)nc3C)cs2)c(OC)c1,1.8,4,·,0,·,-2,2,13,i
CCN(CC)CCNC(=O)c1cc(S(C)(=O)=O)ccc1OC,1.5,6,3.6,·,0.67,8,15,1.4,i
O=C(O)c1ccc(N2CCCCS2(=O)=O)cc1,0.0,3,1.7,-1,0.68,10,11,0.2,i
